H5N1 antiviral: MDCK cell protection from H5N1 avian flu. cytopathic effect, luminescence, 72 h; active compounds read high; no value below 0 was filed and about half of the inactive calls have no number; reference of the scale not given here. inhibition, % at 50 µM. 96,000 tested, 0.07% active. AID 740, 2007; in the data active = inhibition above about 25%
* marks the source's active call; other numbers are inactive results; i = inactive.

The opening 3 entries, ahead of the listing:
SMILES | H5N1 antiviral
CCOC(=O)c1ccc(NCc2nc3ccccc3[nH]2)cc1 | 1.1
COc1ccccc1Nc1nc(N)nc(CN2CCCCCC2)n1 | i
Cc1cc(O)c(C=Nc2cccc(Cl)c2)c(=O)o1 | i

Main list, from the start:
SMILES | H5N1 antiviral
CCOC(=O)c1ccc(NCc2nc3ccccc3[nH]2)cc1 | 1.1
COc1ccccc1Nc1nc(N)nc(CN2CCCCCC2)n1 | i
Cc1cc(O)c(C=Nc2cccc(Cl)c2)c(=O)o1 | i
COC(=O)[C@H](C)NC(=O)Nc1ccccc1F | 0.3
COC(=O)C1C2c3ccccc3OC1(C)N=c1s/c(=C/c3cnn(C)c3)c(=O)n12 (configuration not stated) | 1.4
CC(C)NC(=O)COC(=O)c1ccccc1Oc1ccccc1 | 0.0
Brc1ccc(-c2nc3ncccn3c2Nc2ccc3c(c2)OCCO3)o1 | 0.2
O=C(c1ccccc1)c1cc(-c2ccccc2)on1 | i
O=C(CN(Cc1ccccc1)S(=O)(=O)c1ccc2c(c1)OCCO2)N/N=C/c1ccc(F)cc1 | 0.3
O=C(CC(NS(=O)(=O)c1ccc(Cl)cc1)c1ccco1)NCc1cccnc1 (configuration not stated) | i
CN(C)S(=O)(=O)c1ccc(C(=O)N2CCN=C2SCc2cccnc2)cc1 | 5.2
Cn1c(=O)cc(OCC(=O)N2CCCc3ccccc32)c2ccccc21 | 1.4
COc1ccc(-n2c(SCC(=O)NCC3CCCO3)nc3ccccc32)cc1 (configuration not stated) | i
O=C(Nc1ccc(C#Cc2ccccc2)cc1)C1CC1 | i
CC1(C)CC(=O)c2cc(OCC(=O)NCCN3CCOCC3)ccc2O1 | i
O=C(NC1CCCC1)c1cccnc1N1CCCCCC1 | 0.2
CCOC(=O)C1CCN(C(=O)Cn2cccc2C(=O)c2ccccc2)CC1 | 1.7
CCOc1ccc(C(=O)/C=C/c2ccccc2C(F)(F)F)cc1 | i
N#CC1=C(N)OC2=C(C(=O)CCC2)C1c1ccsc1 (configuration not stated) | i
CCN=C1S/C(=C\c2ccc(Sc3ccc(Cl)cc3)o2)C(=O)N1CC | 1.0
c1coc(-c2ncc[nH]2)c1 | 0.9
CCOC(=O)Cc1csc(NC(=O)CSc2nnc(C)n2C)n1 | 0.2
COC(=O)c1ccccc1NC(=O)Oc1ccc(F)cc1 | i
CCOC(=O)c1c(NC(=O)CN2CCOCC2)sc2c1CCCC2=O | 2.4
Cc1c(NC(=O)NC(=O)c2ccc(F)cc2)c(=O)n(-c2ccccc2)n1C | 0.1
Cc1csc(NC(=O)CSc2ncn(-c3ccccc3)n2)n1 | 1.4
COc1cc2c(cc1OC)CN(CC(=O)Nc1ccc3c(c1)OC(F)(F)O3)CC2 | i
Cc1ccc2nc3c(c(C(=O)O)c2c1)CCC3 | 0.3
CCN1CCN(C(=O)C2CCN(C(=O)c3cc4sccc4n3CC)CC2)CC1 | i
Nc1ccccc1SCC(=O)Nc1ccc(N2CCOCC2)cc1 | 0.7
N#Cc1c(N2CCCC(O)C2)nc(N)c2c(N)nc3c(c12)CC(=O)N3C12CC3CC(CC(C3)C1)C2 (configuration not stated) | i
CC(=O)Nc1ccc(OC(=O)c2cccs2)cc1 | i
Cc1ccc(C)c(Cn2nnc3c(=O)[nH]c(C4CCCN(C(=O)C5CCCCC5)C4)nc32)c1 (configuration not stated) | i
COC(=O)C1=C(C)NC(=O)CC1c1ccc(F)c(Br)c1 (configuration not stated) | 0.2
c1coc(CNc2c3c(nc4ccccc24)CCC3)c1 | 5.3
O=C(Nc1ccc(Cl)cc1)NC1CCCc2ccccc21 (configuration not stated) | i
O=C(CN1CCCC1)Nc1ccc(NC(=O)Nc2ccccc2Cl)cc1 | i
O=C(CSc1cc(Cl)ccc1Cl)NCC1CCCO1 (configuration not stated) | 0.5
O=C(COC(=O)c1ccccc1)NCC1CCCO1 (configuration not stated) | i
COC(=O)C1=C(COc2ccc(F)cc2)NC(=O)NC1c1ccc(C)cc1C (configuration not stated) | i
CC(OC(=O)c1nsc(Cl)c1Cl)C(=O)NCc1cccs1 (configuration not stated) | i
Cc1cc(NC(=O)CSc2nnc(COc3ccccc3)n2Cc2ccco2)no1 | 0.3
Cn1c(=O)c2c(nc(N3CCOCC3)n2CCCNC2=NCCCCC2)n(C)c1=O | i
CCSc1nnc(-c2cccc(S(=O)(=O)N(C)C)c2)n1-c1cc(OC)ccc1OC | 0.1
CC(=O)c1cccc(NC(=O)CCS(=O)(=O)c2cccc3nsnc23)c1 | 1.5
CCCc1nc2ccccc2c(C(=O)OC2CCOC2=O)c1CC (configuration not stated) | 0.4
COC(=O)C1=C(C)N=c2s/c(=C/c3cccs3)c(=O)n2C1c1cccs1 (configuration not stated) | 1.5
Cc1ccc(CSc2ncnc3c2cnn3Cc2ccccc2)cc1 | i
COC(=O)c1cnn(C(=O)c2cc(OC)ccc2Br)c1N | i
COc1cc(-c2nc(-c3ccc4c(c3)-c3ccccc3S4(=O)=O)c(-c3ccccc3)[nH]2)cc(OC)c1OC | 0.7

Following part:
SMILES | H5N1 antiviral
CNc1oc(-c2ccccc2Cl)nc1C#N | 1.9
CCc1ccc2oc(=O)cc(CN3CCOCC3)c2c1 | 0.9
COc1cccc(C2CC(c3ccccc3C)n3nc(N)nc3N2)c1 (configuration not stated) | 0.6
O=C(Nc1ccc2nsnc2c1)N1CCCCC1 | 0.2
O=C1C2CCCN2C(c2ccc(F)cc2)N1c1ccc(Cl)cc1 (configuration not stated) | 2.1
CCOc1cc(NC(=S)Nc2cccc(C)c2)c(OCC)cc1NC(=O)CC(C)C | 0.2
Cn1c(=O)n(Cc2ccc(F)cc2)c(=O)c2c1nc1n2CCCN1C1CCCCC1 | i
Cc1[nH]n(-c2ccccc2)c(=O)c1CCOC(=O)c1cccc(C(F)(F)F)c1 | 0.2
CC(C)C(NC(=O)C1CCC(C(C)(C)C)CC1)C(=O)NCc1cccnc1 (configuration not stated) | i
CCOc1ccc(Cn2nnc(C(=O)Nc3cc(C)cc(C)c3)c2N)cc1 | 0.3
O=[N+]([O-])c1ccc(N2CCC(=NOCc3ccc(Cl)cc3)CC2)cc1 | 0.5
Cc1cccc(C(=O)NNC(=O)c2ccc(Cl)cc2)c1O | 0.8
OCCCc1nc2ccccc2n1CCOc1ccccc1 | 0.1
CCOC(=O)CCc1c(C)nc2cc(-c3ccccc3OC)[nH]n2c1=O | 1.9
CCOC(=O)c1oc2ccccc2c1NC(=O)c1ccc(S(=O)(=O)N(C)C)cc1 | 0.2
CCCCC(=O)Nc1ccc(C(=O)NNC(=O)CCc2ccccc2)cc1 | 1.0
c1ccc(-n2c(-c3ccncc3)nnc2-c2cccs2)cc1 | 1.2
CCCCc1cc(=O)oc2c(CN3CCCC3)c(O)c(Cl)cc12 | 1.3
COC(=O)CSc1nc(-c2ccccc2)nc2ccc(F)cc12 | i
CC1CCN(C(c2ccccc2)c2nnnn2C(C)(C)C)CC1 (configuration not stated) | i
Cc1ccc(C2CC(c3cccc(Cl)c3)n3nc(N)nc3N2)cc1 (configuration not stated) | i
COc1cc(OC)cc(-c2nc3nc(C)c(CCC(=O)NCc4ccco4)c(C)n3n2)c1 | 1.5
CC1C(=O)C(C)C(c2ccc3c(c2)OCO3)NC1c1ccc2c(c1)OCO2 (configuration not stated) | 0.2
CCOC(=O)C1CCCN(c2nc3ccccc3nc2C(C#N)C(=O)OCC)C1 (configuration not stated) | i
c1coc(-c2nc3c4c5c(sc4ncn3n2)CCCC5)c1 | i
CCN(CC)C(=S)SCC(=O)Nc1ccc(F)cc1 | 0.9
O=C(NC1CCS(=O)(=O)C1)c1cnccn1 (configuration not stated) | 0.3
CCOC(=O)c1cnc(SC2CC(=O)N(c3cccc(OC)c3)C2=O)nc1N (configuration not stated) | i
CCOC(=O)CNC(c1ccccc1)c1cc(Br)ccc1NC(=O)OCC (configuration not stated) | 2.0
Cc1nnc(SCCc2ccccc2)[nH]c1=O | i
CCN(CC)CCCN=Cc1c(O)n(Cc2ccc(F)cc2)c(=O)[nH]c1=O | i
CC(C)CCN1C(=O)CCC1(C)C(=O)NC1CCCCCCC1 (configuration not stated) | i
Cc1ccc(NC(=O)c2ccc(N3C(=O)C4CC=C(Cl)CC4C3=O)cc2)cc1 (configuration not stated) | i
O=C1CCN(C(=O)Nc2cccc(Cl)c2)N1 | 0.5
O=C(COc1cccc(C(F)(F)F)c1)Nc1ccc(S(=O)(=O)N2CCCC2)cc1 | i
O=C(CS(=O)(=O)Cc1ccccc1)N1CCN(C(=O)c2ccco2)CC1 | 0.0
O=C(OCC(=O)N1CCc2ccccc21)c1ccccc1 | 1.3
CCOC(=O)c1sc(C)c2c(=O)n(CCc3ccccc3)nnc12 | i
O=S(=O)(c1ccc(Cl)cc1)N1CCN(Cc2c[nH]c3ccccc23)CC1 | i
CN(C)c1cccc(C(=O)n2cc(C(=O)c3cc(F)ccc3O)cn2)c1 | i
CCOC(=O)C(NC(C)=O)C(=O)O (configuration not stated) | i
O=C(Nc1ccc2nc(-c3ccccc3)[nH]c2c1)c1cccs1 | 5.5
CSc1ccccc1NC(=O)CN(c1cc(C)cc(C)c1)S(C)(=O)=O | i
CCOC(=O)N1CCN(C(=O)C(NC(=O)C2CCC(C)CC2)C(C)C)CC1 (configuration not stated) | i
Cn1c(SCC(=O)O)nnc1C1CCCCC1 | i
CCCS(=O)(=O)N1CCCC(C(=O)N2CCN(c3ccccc3)CC2)C1 (configuration not stated) | i
Cc1cc(NS(=O)(=O)Cc2ccccc2)cc(C)c1OCC(=O)N1CCOCC1 | 0.1
CCc1nc(SCC(=O)Nc2ccccc2C(=O)OC)n[nH]1 | i
O=C(CC1C(=O)N(c2ccc(Cl)cc2)C(=S)N1CCc1ccncc1)Nc1ccc(F)cc1 (configuration not stated) | i
COC(=O)c1cc2oc(C)cc2n1CC(=O)Nc1ccc(OC)c(OC)c1OC | 0.4

(continued)
SMILES | H5N1 antiviral
COc1ccc(-c2cn[nH]c2N)cc1OC | i
Cc1ccc(NC(=O)c2ccc(S(=O)(=O)N3CCC(C)CC3)cc2)cc1 | 1.6
CC(=O)Nc1ccc(NC(=O)CSc2nnc(C3CC3)n2C)cc1 | i
Cc1cc(C(=O)N/N=C2\CCCC(C)C2)n[nH]1 (configuration not stated) | 2.4
COc1cc(OC)cc(C(=O)NC2CCN(Cc3nnnn3Cc3cccs3)CC2)c1 | 0.1
CCCCCC(=O)Nc1nc(C)c(-c2csc(Nc3cc(OC)ccc3OC)n2)s1 | i
Clc1ccc2c(N3CCCC3)ccnc2c1 | 1.6
COc1ccc(-c2cc(=O)oc3c(C)c(O)c(CN(C)C)cc23)cc1 | 0.1
C=CCOc1ccc(CNC(C)(C)C)cc1OC | 0.2
Cc1nnc(NC(=O)c2oc3cc(C)c(C)cc3c2C)s1 | i
O=C(CN1C(=O)CCC1=O)Nc1nc(-c2nc3ccccc3s2)cs1 | i
CC(C)=C1SC(N2CCN(Cc3ccccc3)CC2)=NC1=O | i
Cc1ccc(-n2nc3ccc(N)cc3n2)cc1 | 0.1
CCC(=O)OCC(=O)c1c(N)n(Cc2ccccc2)c(=O)n(C)c1=O | i
O=C(CCC1COc2ccccc2O1)Nc1ccccn1 (configuration not stated) | 3.0
COc1cc(Cl)c(C)cc1NC(=O)CSc1nnc(-c2cccnc2)n1Cc1ccco1 | i
CCOP(=O)(O)c1ccccc1OCCOCCOc1ccccc1P(=O)(O)OCC | i
CCOC(=O)c1c(NC(=O)CC2Nc3cc(C)c(C)cc3NC2=O)sc(C)c1C (configuration not stated) | i
CCc1nn(-c2cc(Oc3cccc4ccccc34)nc(-c3ccccc3)n2)c(N)c1C#N | i
CCOC(=O)C1CCN(C(=O)CCn2c(=O)[nH]c3ccccc3c2=O)CC1 | 0.1
O=C(c1ccc(Cl)c(Cl)c1)c1cnc(Nc2ccccc2)s1 | i
COc1cccc(C(=O)OCCN2C(=O)c3ccccc3C2=O)c1OC | 2.6
CCN(CC)Cc1nc2c(c(=O)[nH]1)C1(CCCCC1)Cc1ccccc1-2 | i
Cn1c2c(c(=O)n(C)c1=O)CN(CCc1ccccc1)CN2 | 0.5
COC(=O)c1c(NC(C)=O)sc2c1CCCC2 | i

2 entries drawn at random from those above:
SMILES | H5N1 antiviral
O=C(Nc1ccc2nc(-c3ccccc3)[nH]c2c1)c1cccs1 | 5.5
CCOC(=O)CNC(c1ccccc1)c1cc(Br)ccc1NC(=O)OCC (configuration not stated) | 2.0

Part of the list above, as labelled records.
Molecule: Cc1cc(C(=O)N/N=C2\CCCC(C)C2)n[nH]1 (configuration not stated)
  H5N1 antiviral: 2.4
Molecule: COc1cc(OC)cc(C(=O)NC2CCN(Cc3nnnn3Cc3cccs3)CC2)c1
  H5N1 antiviral: 0.1
Molecule: CCCCCC(=O)Nc1nc(C)c(-c2csc(Nc3cc(OC)ccc3OC)n2)s1
  H5N1 antiviral: i
Molecule: Clc1ccc2c(N3CCCC3)ccnc2c1
  H5N1 antiviral: 1.6

Next part
SMILES | H5N1 antiviral
O=C(c1cccs1)N1CCN(C2CCCCC2)CC1 | i
Cc1cc(C)c(NC(=O)OCCN2CCOCC2)c(C)c1 | 0.8
COc1ccc(N2CCN(CC(=O)Nc3nnc(-c4ccccc4)s3)CC2)cc1 | i
O=C(CN1CCCCC1)Nc1ccccc1 | 0.4
Cc1nnc(SCc2ccccc2)n1CC1CCCO1 (configuration not stated) | 0.7
CC(C)(C)n1nc(-c2ccc(Cl)cc2)c2c(N)ncnc21 | 1.7
CCNC(=S)NNC(=O)c1ccc(OC(F)F)cc1 | 0.1
COc1ccc(/C=N/NC(=O)C(C)n2nnc3ccccc32)cc1OC (configuration not stated) | 1.1
Cc1c(C2(O)C(=O)Nc3ccc(F)cc32)c(=O)n(-c2ccccc2)n1C (configuration not stated) | i

These rows are one share of the data; rates above refer to the full screens.
